# Screens as filed in PubChem BioAssay.
# Mtb hypoxia inh: PubChem AID 1159583; M. tuberculosis hypoxia-regulated fluorescent reporter, fluorescence; fluorescence inhibition, % (concentration not given with the values); 300,000 compounds, 0.1% hits;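 active means 35 to 45% if threefold the growth effect, above 45% if 1.5-fold the growth effect; inactive means the rest, general growth blockers included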;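 further: wells of about 50 µL received 100 nL stock; 0% = vehicle wells and 100% = reference inhibitor wells; whole bacteria with a GFP reporter of the hypoxia response; strong numbers were not always called active; many hits fall short of the cut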
# RN4220 kill: growth inhibition of S. aureus RN4220, primary screen, OD600; 16 h; inhibition, % (concentration not given with the values); 330,000 compounds, 0.33% hits;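 active means z-score of -3 or lower and OD600 up to 0.18 on both plates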;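 further: plate controls were untreated cells for no effect and reference antibiotic for full effect; stock transfer was 100 nL into about 80 µL; one replicate is shown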
# ugtP null kill: growth inhibition of ugtP-null S. aureus, primary screen, RN4220 ugtP deletion, OD600; 330,000 compounds, 0.54% hits; growth inhibition, % (concentration not given with the values); 16 h; some inactives read as strong as hits; AID 1259309, 2017;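 active means z-score under -3 and OD600 up to 0.15 on both plates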;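 further: plate controls were untreated wells for no effect and antibiotic for full effect; wells of about 80 µL received 100 nL stock; the first replicate is given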
# Autofluor counter: counter-screen for toxin protease inhibitors: compound fluorescence; compound autofluorescence counterscreen, microsphere flow cytometry; active compounds read high; fluorescence intensity (test concentration not listed); 360,000 compounds, 3.1% hits;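 active means at least 3 SD above the mean of all compounds, about 16000 in these data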;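 further: 100 nL of 1 mM stock went into each well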
# PrP 5UTR inh: inhibition of PrP 5' UTR reporter expression; cell-based PrP 5' UTR mRNA reporter, plate reader; inhibition, % (concentration not given with the values); 340,000 compounds, 0.35% hits; AID 488862, 2010;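 active means every replicate at 50% or more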;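 further: 0 = median of the neutral control wells; tested in H4 reporter cells; numbers are from one replicate; inactives centre near -14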
# BJeLR viability: MLPCN primary cell-based screen for lethality selective to Ras in HRASV12 cells; BJeLR (HRASV12) viability, CellTiter-Glo ATP luminescence, 48 h; reference of the scale not given here; inhibition, % (test concentration not listed); 300,000 compounds, 0.17% hits; AID 1554, 2009;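 active means replicate mean above 50%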;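 further: 50 nL library stock added to about 25 µL; numbers are from one replicate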
# Mtb hypoxia inh growth: also measured in Mtb hypoxia inh; calls as there; growth inhibition, %; measured here: M. tuberculosis growth (absorbance);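 0% = vehicle and 100% = reference antibiotic; read after six days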
# An asterisk follows results filed as active; · = no result given.
SMILES,Mtb hypoxia inh,Mtb hypoxia inh growth,RN4220 kill,ugtP null kill,Autofluor counter,PrP 5UTR inh,BJeLR viability
CC12CC3CC(C)(C1)CC(C(=O)NCc1cccnc1)(C3)C2,4,1,5.1,2,·,-5,4
O=C(CCCc1ccccc1)NCCc1cnc[nH]1,8,6,0.6,3,4106,-4,3
COc1cc(NC(=O)c2cc(OC)c(OC)c(OC)c2)ccc1NC(=O)c1cccs1,-5,5,-0.5,4,5754,-7,-11
CC1(C)CC(=O)C2=C(C1)OC(N)=C(C#N)C2c1ccsc1 (stereo not drawn),·,·,1.7,6,3114,-28,2
O=C(NC1CCCCCC1)C1CCN(S(=O)(=O)N2CCC3(CC2)OCCO3)CC1,1,10,4.9,1,9970,-27,-14
NS(=O)(=O)c1ccc(NC(=O)COC(=O)c2cc3ccccc3oc2=O)cc1,-1,-7,1.5,4,5571,-11,-4
CCOCCCNC(=O)C(NC(=O)Cc1cccs1)c1ccccc1 (stereo not drawn),-7,2,2.8,6,4058,-27,2
COc1ccc(C)cc1N(C(=O)c1ccc(C#N)cc1)C1=NC(C)(C)CS1,-6,-1,0.6,-5,3848,-18,4
COc1ccc(N(CC(=O)N/N=C(\C)c2ccc(C)cc2)S(=O)(=O)c2ccccc2)cc1,·,·,·,·,3733,-30,-13
C/C(NCc1cccnc1)=C(\C#N)C(=O)NCc1ccccc1,·,·,·,·,2964,-12,-1
Cc1cccc(C(=O)NC(=S)Nc2ccccc2C(F)(F)F)c1,0,7,-1.2,10,2444,-23,-2
O=C1NCCCc2c1no[n+]2[O-],16,1,8.4,5,11267,3,-3
Cc1nnc(NC(=O)c2cccc(S(=O)(=O)N3CC(c4ccccc4)CC3=O)c2)s1 (stereo not drawn),·,·,11,6,4529,1,-15
CC(C)(C)NC(=O)c1ccccc1-c1nc2ccccc2s1,0,-3,6.2,17,4249,-43,0
CC=C(C)C(=O)Nc1cccc(C2=NOC3(C2)CC(C(N)=O)N(C(=O)C2CCC(=O)N2)C3)c1 (stereo not drawn),1,1,2.5,-1,·,·,·
CCCC(=O)Nc1ccc(S(=O)(=O)Nc2cc(OC)ncn2)cc1,-6,4,0.8,0,5858,5,-1
Cc1ccc(C)c(OCC(O)CNC2CCCC2)c1 (stereo not drawn),4,0,4.7,4,3999,-6,3
CCc1ccccc1NC(=O)C(C)n1nc([N+](=O)[O-])c(Br)c1C (stereo not drawn),2,-3,6.2,4,10655,-1,4
COc1ccc(OC)c(-n2c(=S)[nH]c3cc(C(=O)N4CCC(C(N)=O)CC4)ccc3c2=O)c1,5,8,2.2,3,3605,-10,-3
O=[N+]([O-])c1ccc(C=NNC(=S)Nc2ccc(F)cc2)cc1,-14,12,-1.1,-4,4087,-5,·
O=C(Nc1ccccc1)c1nn(-c2cccc(C(F)(F)F)c2)ccc1=O,16,7,14,5,4834,-15,6
CCOC(=O)c1cccc2c1-c1ccccc1C2=NO,1,8,-1.1,88*,·,·,·
CN(Cc1ccccc1)C(NC(=O)c1ccccc1)C(Cl)(Cl)Cl (stereo not drawn),-5,-3,6.9,51,10760,-25,3
CC1=NN(c2ccccc2)C(=O)C1N=Nc1ccccc1 (stereo not drawn),6,15,1.0,-15,2099,-83,-7
CCCC1(C(=O)OC)NC(c2cc(OC)c(OC)c(OC)c2)C2C(=O)N(CC)C(=O)C21 (stereo not drawn),1,-2,6.1,2,3974,-12,·
CCc1ccc(C(C)=NNS(=O)(=O)c2ccc(OC)cc2)s1,3,6,2.6,15,·,·,·
CC(=NCCC1=CCCCC1)c1c(O)n(-c2ccccc2)c(=O)[nH]c1=O,9,22,0.4,1,3751,·,-9
O=C(Cn1c(COc2ccccc2)nc2ccccc21)Nc1cc(Cl)ccc1Cl,5,-4,9.1,-3,2003,-16,-3
Cn1c(N)c(C(=O)COC(=O)Cc2ccc(F)cc2)c(=O)n(C)c1=O,9,-5,4.7,0,6232,-9,·
CC(Sc1nncn1C)C(=O)NCc1ccc2c(c1)OCO2 (stereo not drawn),-8,-2,1.6,-3,4258,-14,5
C=CCNC(=O)c1cc(-c2cccnc2)nc2ccccc12,6,2,-2.2,14,3922,-13,0
C=CCC1(CC=C)CCCN1C(=O)c1cc(COc2cccc(OC)c2)on1,7,9,2.1,16,5246,-13,2
O=[N+]([O-])c1ccc(/C=N/Nc2nc(N3CCOCC3)nc(N3CCOCC3)n2)cc1,·,·,·,·,3291,-17,-16
O=C(NCc1ccc(F)cc1)c1ccc(Cl)c(NC2=NC3CS(=O)(=O)CC3S2)c1 (stereo not drawn),7,13,-1.8,-2,5519,-14,0
O=C(CC1OC(=O)c2ccccc21)NNC(=O)c1ccc(F)cc1 (stereo not drawn),1,-4,0.1,12,8245,-13,·
CC(OC(=O)c1ccccc1Oc1ccccc1)C(=O)NC1CC1 (stereo not drawn),19,3,0.8,7,4856,-19,5
CC(C)CC(=O)Nc1ccc(N2CCOCC2)cc1,16,4,-16,-4,3168,-20,2
CC1=CC=CN2CC(O)CN=C12 (stereo not drawn),-8,5,11,5,3395,-8,12
CCOP(=O)(OCC)C(O)c1ccc(OC)c(OC)c1 (stereo not drawn),·,·,1.1,0,4572,-21,-12
C=CCc1cc(C=O)cc(OCC)c1O,8,7,0.3,10,4521,-21,-6
c1ccc(-c2nc(-n3nc4ccccc4n3)nc3ccccc23)cc1,11,4,13,-6,2978,-7,-16
CCOC(=O)N1C2=NC(C(=O)OC)=C(C(=O)OC)C3N(Cc4ccccc4)c4ccccc4[C@]23CC1C(=O)OC (stereo partly drawn),-13,-2,1.3,-5,·,·,·
COc1ccc(-c2cc(C(=O)OCC(=O)N3CCCC3)c3ccccc3n2)cc1,10,4,6.7,3,3171,-58,7
NC(=O)c1cc(C(=O)c2ccccc2Cl)c[nH]1,9,-5,5.3,1,3234,-15,9
Cc1ccc(-c2nc(NC(=O)c3nn(C)cc3[N+](=O)[O-])sc2C)cc1,2,5,2.2,-5,9731,·,12
Cc1ccccc1/C=C1\Sc2ccc(C(=O)N3CCN(c4ccccn4)CC3)cc2N(C)C1=O,11,3,2.6,-7,5403,-24,2
Cc1nc([N+](=O)[O-])c(Sc2nc3ccccc3[nH]2)n1Cc1ccccc1,8,2,2.0,5,8495,-24,-7
CC(=O)Nc1ccc(NC(=O)CSc2ncnc3sc(C)c(C)c23)cc1,18,0,1.0,9,4521,-29,3
Cc1cccnc1NC(=O)CNC(=O)c1cccs1,10,-3,4.2,7,5715,-22,12
O=S(=O)(NCCC1=CCCCC1)c1c(Cl)cccc1Cl,-2,-7,0.7,-8,5658,-8,0
CCCCn1c(N)c(N(CC)C(=O)c2ccc(Cl)c([N+](=O)[O-])c2)c(=O)[nH]c1=O,-17,0,7.3,7,2856,-33,1
Cc1ccc(CNC(=O)c2ccc(S(=O)(=O)N3CCCCC3)cc2)cc1,-2,-17,3.0,2,5483,-15,·
CCc1nnc(NN=Cc2ccc(O)c(OC)c2)n1N,-3,8,6.8,6,·,·,·
CC(=O)Nc1ccccc1C(=O)C(=O)Nc1ccc(C)c(F)c1,17,12,3.8,2,3309,-136,6
Cc1ccc(NC(=O)CCCN2C(=O)c3cccc4cccc(c34)C2=O)cc1,15,-1,4.8,3,10958,-31,1
O=C(CO/N=C/c1ccc(OC(F)F)cc1)NC1CCCC1,·,·,·,·,3377,-12,2
COc1ccc(CNC(=O)CN2C(=O)CCSc3ccc(S(=O)(=O)N4CCCC4)cc32)cc1,0,6,1.5,0,5824,-8,10
O=C1C2C3C=CC(C3)C2C(=O)N1CN(Cc1ccccc1)CN1C(=O)C2C3C=CC(C3)C2C1=O (stereo not drawn),7,7,4.7,14,16805*,-11,1
COc1cc(C=NNC(=O)C2COc3ccccc3O2)cc(OC)c1O (stereo not drawn),8,7,9.4,2,·,·,·
COC(=O)CSc1cnc2ccccc2n1,·,·,6.6,4,3008,-7,3
# Next part
SMILES,Mtb hypoxia inh,Mtb hypoxia inh growth,RN4220 kill,ugtP null kill,Autofluor counter,PrP 5UTR inh,BJeLR viability
COc1nc(N)nc(NC23CC4CC(CC(C4)C2)C3)n1,15,3,1.7,-5,7130,-8,6
Cc1cccc(NS(=O)(=O)c2cccc(C(=O)NCC3(N4CCOCC4)CCCCC3)c2)c1,4,2,5.6,2,4206,-19,·
COc1ccc(OC)c(-n2c(-c3cc(-c4ccc(F)cc4)n[nH]3)n[nH]c2=S)c1,1,11,-1.2,-4,2292,-21,-18
Cc1cc(C)cc(-n2nnc(C(=O)NCc3ccccc3Cl)c2N)c1,-9,-4,-2.9,-6,9878,-5,-7
CC(=O)c1cc(C)c(OC(=O)c2ccccc2)c(C)c1,5,4,5.2,11,2949,-2,·
CCN(CC(=O)NC(C)(C)C)Cc1nc2c(Br)cc(Br)cc2c(=O)[nH]1,7,4,-1.8,4,3698,-11,-7
CCOc1cc(/C=N/NC(=O)C(OC)c2ccccc2)ccc1O (stereo not drawn),·,·,·,·,3238,-11,-4
Cn1nccc1C(=O)Oc1ccc(C=NNC(=O)c2ccccc2O)cc1,9,7,6.0,0,·,·,·
O=C(CCC(=O)c1ccccc1)NCCc1c[nH]c2ccccc12,6,4,-2.4,4,6941,7,-10
CCC(C(=O)OCC(=O)Nc1ccc(C(N)=O)cc1)c1ccccc1 (stereo not drawn),2,2,-0.4,-4,2033,-24,-5
COc1ccc(CCNC(=O)C2CCCN2S(=O)(=O)c2ccc(F)cc2)cc1OC (stereo not drawn),-1,-3,1.5,2,3249,-6,-4
C[C@@H]1CCC[C@@]2(O[C@H](CCO)C[C@H](O)[C@H]2O)O1,·,·,·,·,3050,3,9
COc1ccc(OC)c(-c2cc(C(=O)NCCN3CCOCC3)no2)c1,10,3,4.8,5,10582,-17,-7
Cc1nn(C(C)(C)C)c(OC(=O)c2cccs2)c1S(=O)(=O)c1ccccc1,-2,2,0.3,12,4343,-9,2
c1ccc(CC(NCc2ccco2)c2ccccc2)cc1 (stereo not drawn),3,10,6.1,1,3702,-14,-2
CCOCCCN1C(=O)C2C(C(=O)Nc3ccc(OCC)cc3)C3C=CC2(O3)C1C(=O)NC1CCCCC1 (stereo not drawn),10,-7,-1.6,6,3747,-21,-1
COc1ccc(OC)c(/C=C/C(=O)OCC(=O)Nc2ccc3c(c2)OCCO3)c1,·,·,·,·,2629,-29,2
CCN(CCn1cccn1)C(=O)CC1C(=O)NCCN1Cc1ccc(OC)c(OC)c1 (stereo not drawn),17,4,9.0,6,1960,-21,-1
Cc1ccccc1NC(=O)CC1SC(=NC2CCCCC2)NC1=O (stereo not drawn),·,·,-0.6,4,4796,-12,3
COc1ccc(S(=O)(=O)Nc2cc3c4c(c2)C(C)C(=O)N4CCC3)cc1OC (stereo not drawn),1,0,4.1,9,5300,-12,1
O=C(Oc1ccc(NC2=C(Cl)C(=O)c3ccccc3C2=O)cc1)c1ccc([N+](=O)[O-])cc1,·,·,·,·,2610,-87,-7
Cn1c(=O)[nH]c(=O)c2c1nc(Br)n2CCSc1nnnn1-c1ccccc1,-6,-12,-2.6,2,11588,-12,3
CCN(CC)CCN1C(=O)c2oc3ccccc3c(=O)c2C1c1cccc(Br)c1 (stereo not drawn),1,4,3.6,4,2787,3,4
Cc1cccc(C)c1NC(=O)N1CCCCCCC1,9,0,3.5,14,3345,-21,·

# Another view of part of the listing above.
O=C(Oc1ccc(NC2=C(Cl)C(=O)c3ccccc3C2=O)cc1)c1ccc([N+](=O)[O-])cc1
  Mtb hypoxia inh: ·
  Mtb hypoxia inh growth: ·
  RN4220 kill: ·
  ugtP null kill: ·
  Autofluor counter: 2610
  PrP 5UTR inh: -87
  BJeLR viability: -7
Cn1c(=O)[nH]c(=O)c2c1nc(Br)n2CCSc1nnnn1-c1ccccc1
  Mtb hypoxia inh: -6
  Mtb hypoxia inh growth: -12
  RN4220 kill: -2.6
  ugtP null kill: 2
  Autofluor counter: 11588
  PrP 5UTR inh: -12
  BJeLR viability: 3
CCN(CC)CCN1C(=O)c2oc3ccccc3c(=O)c2C1c1cccc(Br)c1 (stereo not drawn)
  Mtb hypoxia inh: 1
  Mtb hypoxia inh growth: 4
  RN4220 kill: 3.6
  ugtP null kill: 4
  Autofluor counter: 2787
  PrP 5UTR inh: 3
  BJeLR viability: 4

# Random draw from the library; 4% or so of the library scored in one or more.
